RecA splice inh = Mtb RecA intein splicing inhibition | P9WHJ3 | cell-free RecA intein splicing, fluorescence | inhibition, %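 (about 9 µM by stock and volumes)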 | 290,000 tested, 0.75% active; in the data active = inhibition above about 30%; inconclusive = no clear call, values can overlap the other calls;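 note: 0% = vehicle wells and 100% = reference inhibitor control wells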
Target sequence (P9WHJ3 whole entry, looked up, canonical isoform): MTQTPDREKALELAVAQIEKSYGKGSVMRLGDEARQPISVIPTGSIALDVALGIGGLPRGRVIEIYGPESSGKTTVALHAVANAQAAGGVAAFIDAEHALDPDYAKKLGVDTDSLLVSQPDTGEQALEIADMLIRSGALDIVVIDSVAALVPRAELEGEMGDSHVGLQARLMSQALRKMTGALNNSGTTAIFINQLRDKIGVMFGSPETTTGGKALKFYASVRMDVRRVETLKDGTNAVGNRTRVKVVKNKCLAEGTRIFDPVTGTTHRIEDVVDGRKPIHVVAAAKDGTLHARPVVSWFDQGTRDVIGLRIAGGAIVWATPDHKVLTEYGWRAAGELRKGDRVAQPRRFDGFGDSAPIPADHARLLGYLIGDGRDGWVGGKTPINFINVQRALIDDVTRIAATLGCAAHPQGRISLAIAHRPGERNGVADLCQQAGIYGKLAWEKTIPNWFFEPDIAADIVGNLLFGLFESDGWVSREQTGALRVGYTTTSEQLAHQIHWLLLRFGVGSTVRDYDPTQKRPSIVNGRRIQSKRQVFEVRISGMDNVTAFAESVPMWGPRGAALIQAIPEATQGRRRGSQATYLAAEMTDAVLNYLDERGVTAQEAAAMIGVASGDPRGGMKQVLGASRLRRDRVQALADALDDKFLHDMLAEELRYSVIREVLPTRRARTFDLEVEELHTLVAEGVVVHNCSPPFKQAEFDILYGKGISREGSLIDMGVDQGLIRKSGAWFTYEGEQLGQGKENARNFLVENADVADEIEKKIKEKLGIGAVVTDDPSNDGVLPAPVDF
YopH inh = inhibitors of Yersinia enterocolitica YopH tyrosine phosphatase; fluorescence Ex485/Em525; inhibition, %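 (about 10 µM by stock and volumes)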; 140,000 tested, 0.16% active; AID 898;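 active = inhibition of 50% or more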;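 note: controls were vehicle for no effect and minimum signal wells for full effect; inactives centre near -20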
Arbovirus inh = blocks arbovirus infection; inhibition, % at 10 µM; 200,000 tested, 0.37% active; arbovirus infection cell-based antiviral screen;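 active = inhibition from about 30%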;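 note: bluetongue infection of BSR cells; cell survival read as ATP light after 72 h; 0% = infected wells without compound and 100% = uninfected wells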
Mtb H37Rv = M. tuberculosis H37Rv growth inhibitors, H37Rv strain (AID 1626); M. tuberculosis H37Rv growth inhibition; higher % means a stronger effect; one-dose inhibition, % at 10 µM; IC50 in µM for titrated hits; 220,000 tested, 0.95% active;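 active = confirmed in a dose series; inconclusive = inhibition above 80% but not taken into the dose series; inactive = below 80% or under 30% at every dose of the series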;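 note: bacteria incubated seven days before Alamar blue readout; 0% = bacteria only wells and 100% = bacteria with antibiotic wells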
Mtb bLac sens = beta-lactam sensitization of Mtb H37Rv | AID 434955 | M. tuberculosis H37Rv growth with meropenem, percent inhibition; hits of this screen are not shown here | inhibition, % at 25 µM | 330,000 tested, 0.27% active;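 active = about 74% or more and at least 40 points above the plate without the antibiotic, then above 30% in a dose series; inconclusive = first-round hits that could not be retested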;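 note: growth measured after seven days incubation then overnight dye step; 0% = bacteria only wells and 100% = bacteria with antibiotic; twin plates without the antibiotic show which effects depend on it; some results filed as inactive read as strong as hits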
Arbovirus inh repeat = further read-out of Arbovirus inh, marked with its call; inhibition, %; measured here: 10K subset replicate screen; many hits read low in the repeat;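 first of two repeat runs on a subset; 0% = infected and 100% = uninfected wells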
* marks the source's active call; other numbers are inactive results; u = inconclusive; x = not tested or not shown. Some of the compounds tested; the hit share may differ from the screen's.

SMILES | RecA splice inh | YopH inh | Arbovirus inh | Mtb H37Rv | Mtb bLac sens | others
COC(=O)C(C)NC(=O)C(C)NC(=O)OCc1ccccc1 (stereo unspecified) | -0.8 | -45 | 6 | -3% | 7
COc1ccc(-c2cc(C(=O)Nc3c(C)nn(Cc4ccccc4)c3C)no2)cc1 | 2.8 | -21 | -2 | -3% | -4
COc1ccc(S(=O)(=O)NCCc2nnc3ccc(SCC(=O)Nc4cc(C)on4)nn23)cc1 | -1.5 | x | 14 | 5% | -5
Cc1ccc(-n2c(N)c(Br)c(=O)[nH]c2=O)cc1C | -2.3 | x | 1 | 11% | -4
Fc1ccc(-c2oncc2-c2nnnn2-c2ccccc2)cc1F | 6.9 | -109 | 3 | -8% | 2
O=C(CCc1ccc(S(=O)(=O)NCCc2ccccc2)cc1)Nc1ccc2c(c1)OCCO2 | 2.1 | -20 | -9 | 10% | 1
COc1cccc(CN2CCNC(=O)C2CC(=O)NCC2CCOCC2)c1 (stereo unspecified) | -0.4 | x | x | x | -9
CCOC(=O)c1[nH]c2ccc(OC)cc2c1NC(C)=O | -0.1 | -43 | -2 | 3% | 8
COc1ccc(C(=O)Nc2ccccc2N2CCCCC2)cc1[N+](=O)[O-] | -0.1 | x | -4 | 14% | -1
CCOc1ccc(CCNC(=O)COC(=O)c2ccc(Br)o2)cc1OCC | -5.4 | x | x | x | -7
CCN1CCc2c(sc(NC(=O)c3ccc(S(=O)(=O)N4CCCC4)cc3)c2C(=O)NC)C1 | -1.5 | x | x | x | u
Fc1cc(Cl)ccc1NC(=S)NCCN1CCOCC1 | -0.7 | x | 10 | -1% | -4
O=C(CSc1nn(-c2ccccc2)c(=S)s1)NC(=O)NCc1ccco1 | 0.3 | -17 | -1 | -3% | -2
CCOc1ccc(-c2ccc(SCC(=O)NC3CCCCC3)nn2)cc1 | -2.2 | x | x | x | 5
CCC(=O)N1CCc2cc(Br)cc(S(=O)(=O)NCC3CCCO3)c21 (stereo unspecified) | -3.9 | -22 | 12 | -8% | -9
CCOC(=O)c1c(C)nc(C(Cl)(Cl)Cl)nc1N | 1.9 | x | -7 | 4% | 1
O=C1CSC(c2ccc([N+](=O)[O-])cc2)N1CCN1CCCCC1 (stereo unspecified) | -1.8 | x | 6 | -5% | -4
COC(=O)c1ccc(C)c(NC(=O)C2COc3ccccc3O2)c1 (stereo unspecified) | -1.7 | -3 | -5 | -7% | -7
O=C(COC(=O)c1cc2ccccc2cc1O)Nc1cccnc1Cl | 0.6 | -40 | 13 | 2% | -5
O=C(CCc1ccccc1)Nc1ncc([N+](=O)[O-])s1 | 15 | x | 14 | -9% | -3
CCCCn1nc2cc(C(=O)N[C@H](C)C3CCCCC3)ccc2c1OCC | 4.8 | -24 | -16 | 14% | 0
Clc1ccc(-c2csc(Nc3cccnc3)n2)cc1 | -0.4 | x | x | 9% | 30
O=C(CSc1ccc(-c2cccnc2)nn1)c1ccc([N+](=O)[O-])cc1 | 1.6 | x | 5 | 1% | 3
Cc1cc(C)c2c3c(sc2n1)C1(CCSCC1)C(C#N)=C(N)O3 | 0.5 | 4 | 4 | -11% | 13
COc1ccc(NS(=O)(=O)c2cccc(C(=O)NNC(=O)c3cncc(Br)c3)c2)cc1 | 2.3 | x | x | x | -7
COc1ccccc1NS(=O)(=O)c1cccc(C(=O)N/N=C/c2ccc(OCC(=O)O)cc2)c1 | -0.1 | x | -1 | 3% | 8
Cc1ccc(S(=O)(=O)N(C)CC(=O)NC2CCCC2)cc1 | -0.5 | -25 | 7 | -8% | 5
Cc1cc(C)c(NC(=O)C2CCC(=O)N2)c(C)c1 (stereo unspecified) | -3.4 | x | -2 | -9% | 4
O=C(CC1(O)C(=O)N(CN2CCOCC2)c2ccccc21)c1ccccc1 (stereo unspecified) | -1.5 | 10 | -2 | -11% | -4
Nc1cccc(/C=C/C(=O)O)c1 | -0.7 | x | x | -15% | -7
CNC(=S)NCc1ccc(Cl)cc1 | -1.0 | -14 | x | -3% | -9
CN(CC(=O)Nc1ccccc1Cl)C(=O)COC(=O)c1ccc(=O)n(Cc2ccccc2)n1 | 1.5 | x | x | x | -9
Cc1noc(C)c1S(=O)(=O)Nc1ccc(O)c2c(=O)cc(-c3ccccc3Cl)oc12 | -0.8 | x | x | -7% | -12
Cc1ccc(-c2noc(C3CCN(S(=O)(=O)c4ccc5c(c4)OCCO5)CC3)n2)o1 | -1.5 | -54 | 6 | 9% | u
COC(=O)c1ccc2c(=O)[nH]c(COC(=O)c3c(-c4ccccc4Cl)noc3C)nc2c1 | 0.9 | x | x | x | -2
COc1ccc(NC(=S)NCCc2ccccc2)c(OC)c1 | -0.9 | -25 | 2 | 18% | x
COCCCn1c(Cc2csc(Nc3cccc(Cl)c3)n2)nnc1SCC(=O)OC1CCCCC1 | 1.1 | -8 | 8 | 1% | 79
Oc1ccc(/C=N/N2CCCCC2)c(O)c1O | -7.8 | x | x | x | 8
C/C(CC(=O)Nc1ccc(Cl)cc1C(F)(F)F)=N\NC(=O)c1cccs1 | 1.5 | x | x | -7% | 94
O=C(NC(C(=O)c1ccccc1)n1cnccc1=O)c1ccccc1 (stereo unspecified) | 5.2 | -58 | -1 | -6% | 10
CC1CCCN(C(=O)Cn2nnc(-c3cccnc3)n2)C1 (stereo unspecified) | 0.6 | -16 | 4 | -7% | -5
O=C1OC(c2ccccc2)=N/C1=C\N1CCCCC1 | 3.6 | -8 | -1 | 4% | 4
CC(C)C(=O)Nc1nnc(S(=O)(=O)N2c3ccccc3CC2C)s1 (stereo unspecified) | -1.9 | x | x | x | 0
COCCNC(=O)Cn1cnc2sc(C)c(S(=O)(=O)N3CCC(C)CC3)c2c1=O | -0.7 | -51 | 2 | -12% | -2 | Arbovirus inh repeat=2
Cc1ccc(-n2c(SCC(N)=O)nc3c([nH]c4ccccc43)c2=O)cc1 | 0.0 | -27 | -1 | 9% | -5 | Arbovirus inh repeat=9
O=[N+]([O-])c1ccccc1N/N=C/c1c[nH]c2ccccc12 | 0.0 | -26 | 15 | 3% | 12
c1ccc(-c2nc(NCc3ccco3)c3ccccc3n2)nc1 | 3.7 | -26 | -33 | 1.9µM* | 81
NCCNC(=O)c1c(NC(=O)c2ccccc2)sc2c1CCCC2 | 1.8 | x | x | x | 7
COc1cc(OC)cc(C(=O)NC(=S)Nc2ccc(Cl)c(C(=O)O)c2)c1 | 0.9 | -17 | 4 | -5% | 7
COC(=O)c1ccc(CNC(=O)CSC2=NCCS2)cc1 | 3.7 | x | -5 | 13% | -6
CC(C)N1CCC(N2CCN(Cc3ccc4nonc4c3)CC2CCO)CC1 (stereo unspecified) | 1.0 | x | x | -12% | 0
Brc1cc(Br)c2nc(-c3cccs3)ccc2c1 | 1.9 | 3 | 4 | 8% | 55
Brc1cc2[nH]cnc2c2ccccc12 | -2.4 | -22 | 9 | 1% | 20
CC(=O)NNc1ncnc2c1cnn2-c1ccc(C)c(Cl)c1 | -0.6 | x | 10 | -1% | 5
Cc1ccc(C(=O)N2N=C3c4ccccc4S(=O)(=O)N3[C@H]2N(C)C)cc1 | 4.5 | x | 8 | -6% | 4
CCOc1ccccc1N(CC(=O)NCCSc1ccccn1)S(=O)(=O)c1ccc(C)cc1 | 1.1 | x | x | x | -6
O=c1c2c(nc3nc(COc4ccccc4)[nH]n13)CCC2 | -4.8 | -45 | -2 | 6% | 33
CCOC(=O)c1c(C)oc2ccc(NS(=O)(=O)c3cccs3)cc12 | 0.2 | -13 | -1 | 10% | 7
O=C(NC1CCOCC1)C1CCC(=O)N(CCc2cccc(F)c2)C1 (stereo unspecified) | -1.4 | x | x | x | 5
CCCOc1ccc(C(=O)C(CCC(CNCC)C(=O)c2ccc(OCCC)cc2)CNCC)cc1 (stereo unspecified) | 5.3 | -14 | -41 | u | x
Next structures follow.
SMILES | RecA splice inh | YopH inh | Arbovirus inh | Mtb H37Rv | Mtb bLac sens | others
O=C(NCCCc1ccccc1)c1cc(COc2ccc(F)cc2Cl)on1 | 2.3 | x | x | x | 18
Cc1ccc(OCC(O)CN2CCc3ccccc3C2)c(C)c1 (stereo unspecified) | 2.0 | x | x | x | 3
COc1ccccc1C(=O)Nc1ccc2c(c1)nc1n2CCN(Cc2ccccc2)C1 | -0.1 | x | -22 | 6% | 71
COc1ccc(NC(=O)N[C@@H](CCSC)C(=O)O)cc1Cl | 0.1 | -38 | 3 | -16% | -13
CNC(=O)c1csc(-c2ccc(C)cc2)n1 | 1.0 | -21 | -5 | -5% | 69
COc1ccccc1Oc1ccc(N/C=C/C(=O)c2ccc(C)o2)cc1 | -2.4 | x | -3 | 21% | -1
CC(C)C(C)NC(=O)COc1ccc(S(=O)(=O)N2CCOCC2)cc1[N+](=O)[O-] (stereo unspecified) | -5.6 | -39 | 9 | 1% | 8
CCN1CCN(C(=O)NCc2ccccc2)CC1 | -0.9 | x | x | 2% | -4
O=C1NC(=S)S/C1=C/c1ccc(Oc2cnccn2)cc1 | 4.9 | x | 10 | -2% | -4
Cc1csc(N(C)C(=O)CSc2nnc(COc3ccccc3C)o2)n1 | 0.7 | -8 | 1 | -2% | 6
Cc1ccc(C(=O)NN2C(=O)C3C(C2=O)C2C=CC3C23CC3)cc1 (stereo unspecified) | -2.2 | x | 3 | -1% | -3
Cc1ccc2c(ccc[n+]2CC(=O)c2ccccc2)c1 | -2.4 | -24 | -2 | -11% | 1
CCCNc1nc(OC(C(F)(F)F)C(F)(F)F)nc(OC(C(F)(F)F)C(F)(F)F)n1 | -0.3 | -19 | -8 | 6% | -1
CNC(=O)CSc1nnc(-c2ccco2)n1-c1ccccc1OC | -0.5 | -3 | x | -14% | -11
COc1cc(C(=O)Nc2nc(-c3ccc(C)cc3)cs2)ccc1OCC(=O)N1CCOCC1 | -0.7 | -24 | 91* | 15% | 6
c1ccc2c(c1)OCC(c1nn3c(Cn4nnc5ccccc54)nnc3s1)O2 (stereo unspecified) | 1.6 | -25 | 8 | 1% | u
O=C(NN=C1CCN(Cc2ccccc2)CC1)c1cc(Br)ccc1O | 0.2 | x | 6 | -2% | 5
Cc1cc(C(=O)CSc2nnnn2-c2ccc(O)cc2)c(C)n1Cc1ccc2c(c1)OCO2 | 9.3 | -21 | -13 | 2% | 23
NC(=O)C1CCN(C(=O)Cn2cccc2C(=O)c2ccccc2)CC1 | -1.0 | 1 | -2 | -14% | 6
O=C(C1CCCN(S(=O)(=O)c2ccccc2[N+](=O)[O-])C1)N1CCCC1 (stereo unspecified) | -2.2 | -10 | 1 | -7% | 0
COc1ccc(C(=O)COC(=O)CCc2ccccc2)cc1 | 3.7 | x | x | -1% | 0
COC1CCN(C(=O)c2ccc3oc(C(C)C)nc3c2)CC1 | -1.9 | x | x | x | 1
COc1cc(OC)c(OC)cc1/C=N/NC(=O)CC1C(=O)NN=C1C (stereo unspecified) | 0.9 | -21 | 2 | x | -10
CC1=CC(C)(C)N(C(=O)CN2C(=O)CCC2=O)c2ccc(C)cc21 | x | x | 9 | -5% | 3
O=C(O)CC1S/C(=N/N=C/c2ccc(-c3ccc(Cl)cc3[N+](=O)[O-])o2)NC1=O (stereo unspecified) | 70* | 40 | 0 | -5% | 5
COc1ccc(-c2[nH]c(-c3ccc(F)cc3)nc2SCC(=O)NC2CCCC2)cc1 | -8.6 | -2 | -4 | 57% | 46
CC(=O)N1CCN=C1SCc1c(F)cccc1Cl | 6.8 | -24 | -5 | -14% | 2
O=C(C1=C[C@H](C2CC2)C[C@H](OCc2ccc(CO)cc2)O1)N1CCOCC1 | 0.3 | x | 3 | -11% | -3
O=C1CC(N2CCC(c3nc4ccccc4[nH]3)CC2)C(=O)N1Cc1ccccc1 (stereo unspecified) | -4.4 | -33 | 0 | -1% | -3
O=C(CN1CC(=O)Nc2ccccc21)NCCc1ccc(Cl)cc1Cl | 9.6 | x | -8 | -1% | -2

Grouped by structure: those above containing bromine.
SMILES | RecA splice inh | YopH inh | Arbovirus inh | Mtb H37Rv | Mtb bLac sens | others
Cc1ccc(-n2c(N)c(Br)c(=O)[nH]c2=O)cc1C | -2.3 | x | 1 | 11% | -4
CCOc1ccc(CCNC(=O)COC(=O)c2ccc(Br)o2)cc1OCC | -5.4 | x | x | x | -7
CCC(=O)N1CCc2cc(Br)cc(S(=O)(=O)NCC3CCCO3)c21 (stereo unspecified) | -3.9 | -22 | 12 | -8% | -9
COc1ccc(NS(=O)(=O)c2cccc(C(=O)NNC(=O)c3cncc(Br)c3)c2)cc1 | 2.3 | x | x | x | -7
Brc1cc(Br)c2nc(-c3cccs3)ccc2c1 | 1.9 | 3 | 4 | 8% | 55
Brc1cc2[nH]cnc2c2ccccc12 | -2.4 | -22 | 9 | 1% | 20
O=C(NN=C1CCN(Cc2ccccc2)CC1)c1cc(Br)ccc1O | 0.2 | x | 6 | -2% | 5
